Screening data deposited in PubChem by several laboratories.
Mtb H37Rv – M. tuberculosis H37Rv growth inhibitors, H37Rv strain (AID 1626); M. tuberculosis H37Rv growth inhibition; higher % means a stronger effect; actives 0.95% (n = 220,000); inhibition, % at 10 µM; hits with a dose series show IC50 in µM;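 active = confirmed in a dose series; inconclusive = inhibition above 80% but not taken into the dose series; inactive = below 80% or under 30% at every dose of the series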;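 also: bacteria incubated seven days before Alamar blue readout; 0% = bacteria only wells and 100% = bacteria with antibiotic wells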
Mtb betalactam – beta-lactam sensitization of Mtb H37Rv; M. tuberculosis H37Rv growth with meropenem, percent inhibition; hits of this screen are not shown here; AID 434955; actives 0.27% (n = 330,000); inhibition, % at 25 µM;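 active = about 74% or more and at least 40 points above the plate without the antibiotic, then above 30% in a dose series; inconclusive = first-round hits that could not be retested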;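 also: growth measured after seven days incubation then overnight dye step; 0% = bacteria only wells and 100% = bacteria with antibiotic; twin plates without the antibiotic show which effects depend on it; some results filed as inactive read as strong as hits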
Arbovirus inh – arbovirus infection inhibition. arbovirus infection cell-based antiviral screen. inhibition, % at 10 µM. actives 0.37% (n = 200,000);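 active = inhibition from about 30%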;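 also: bluetongue infection of BSR cells; cell survival read as ATP light after 72 h; 0% = infected wells without compound and 100% = uninfected wells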
YopH PTP inh – YopH (Yersinia) phosphatase inhibition; fluorescence Ex485/Em525; inhibition, %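 (about 10 µM by stock and volumes)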; actives 0.16% (n = 140,000); AID 898;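 active = inhibition of 50% or more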;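 also: controls were vehicle for no effect and minimum signal wells for full effect; inactives centre near -20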
RecA splice inh – Mtb RecA intein splicing inhibition; P9WHJ3; cell-free RecA intein splicing, fluorescence; inhibition, %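 (about 9 µM by stock and volumes)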; actives 0.75% (n = 290,000); AID 2221; in the data active = inhibition above about 30%; inconclusive = no clear call, values can overlap the other calls;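 also: 0% = vehicle wells and 100% = reference inhibitor control wells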
Target sequence (P9WHJ3 whole entry, looked up, canonical isoform): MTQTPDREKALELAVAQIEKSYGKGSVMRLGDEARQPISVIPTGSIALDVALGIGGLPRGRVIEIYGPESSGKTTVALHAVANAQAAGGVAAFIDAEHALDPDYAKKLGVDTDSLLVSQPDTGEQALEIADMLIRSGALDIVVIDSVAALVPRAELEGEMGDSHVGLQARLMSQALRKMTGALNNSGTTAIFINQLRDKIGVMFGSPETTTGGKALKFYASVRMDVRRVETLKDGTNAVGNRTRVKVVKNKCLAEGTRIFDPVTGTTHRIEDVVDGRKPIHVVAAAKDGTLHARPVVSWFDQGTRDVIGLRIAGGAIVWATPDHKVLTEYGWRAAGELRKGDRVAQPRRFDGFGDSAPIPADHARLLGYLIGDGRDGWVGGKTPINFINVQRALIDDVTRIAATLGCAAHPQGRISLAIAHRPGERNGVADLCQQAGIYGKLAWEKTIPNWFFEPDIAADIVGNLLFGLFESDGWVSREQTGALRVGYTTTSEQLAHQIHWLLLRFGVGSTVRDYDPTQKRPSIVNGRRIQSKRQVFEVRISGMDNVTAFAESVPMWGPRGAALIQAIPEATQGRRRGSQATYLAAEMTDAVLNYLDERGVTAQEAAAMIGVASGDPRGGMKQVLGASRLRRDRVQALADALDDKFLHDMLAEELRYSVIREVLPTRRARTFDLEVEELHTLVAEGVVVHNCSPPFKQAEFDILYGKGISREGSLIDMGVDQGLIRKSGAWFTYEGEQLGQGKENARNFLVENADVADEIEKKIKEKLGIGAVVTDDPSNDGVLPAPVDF
Arbovirus inh repeat – also measured in Arbovirus inh; calls as there; inhibition, %; measured here: 10K subset replicate screen; many hits read low in the repeat;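 first of two repeat runs on a subset; 0% = infected and 100% = uninfected wells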
The depositor's hits bear a star; ? = inconclusive; · = not tested or not shown; & = joins results of further samples. Some of the compounds tested. The share of hits here may be higher or lower than overall.

SMILES	Mtb H37Rv	Mtb betalactam	Arbovirus inh	YopH PTP inh	RecA splice inh	others
COc1ccc(C(=O)N/C(=C\c2ccco2)C(=O)NCCN2CCOCC2)cc1	·	2	·	·	1.0
Cc1nsc2nc3c(F)c(F)c(F)c(F)c3cc12	·	-4	·	·	0.9
CN(C)c1cccc(C(=O)N2CCCC(C(=O)c3cc(F)ccc3F)C2)c1 (centres undefined)	-2%	-7	-2	·	-0.9
Cc1ccc(-n2nnnc2Sc2nc([N+](=O)[O-])nn2C)c(C)c1	2%	·	·	-13	4.7
CCc1ccc(CN(C(=O)c2cccs2)C2CCS(=O)(=O)C2)cc1 (centres undefined)	·	-1	·	·	-0.7
O=C(CN(CC1CCCO1)C(=O)CCC(=O)Nc1ccccn1)NCc1ccccc1 (centres undefined)	-8%	-7	-1	11	-0.6
Cc1cc(=O)oc2cc(OC(C(=O)O)c3ccccc3)ccc12 (centres undefined)	·	-1	·	·	0.5
O=C(COC(=O)COc1cccc2ccccc12)NCC(F)(F)F	-4%	-6	29	·	-9.4
Cc1ccc(O)c(NC(=S)NC(=O)c2ccc(-c3ccc(Cl)cc3)o2)c1	?	94	·	-9	-4.7
COc1ccc(CCN2C(=O)NC(NS(=O)(=O)c3ccc(N)cc3)(C(F)(F)F)C2=O)cc1OC (centres undefined)	6%	-4	-2	-23	0.2
Cc1ccc(NC(=O)CN2C(=O)NC3(CCC(C)CC3)C2=O)c(Cl)c1 (centres undefined)	-4%	-16	8	-36	1.3
CCc1ccc(C(=O)c2oc3nc(C)cc(C)c3c2N)cc1	1%	51	1	1	-14
Cc1cc(F)ccc1NCc1cccnc1	-7%	-5	-28	-158	·
O=C(Cc1ccc([N+](=O)[O-])cc1)N1CCCCCC1	-4%	-4	10	·	-2.3
CC(C)(C)SCCNC(=O)/C=C/c1ccc([N+](=O)[O-])cc1	11%	-6	11	-9	3.0
COc1cc(C=Nc2cccc([N+](=O)[O-])c2C)ccc1OC(C)=O	-3%	2	0	-24	1.0
Cc1cccc(C)c1NC(=O)CSc1nnc(-c2ccoc2C)n1C	-13%	-7	-2	-29	-2.1
Cc1ccc(NC(=O)c2ccc(F)c(S(=O)(=O)N3CCOCC3)c2)cc1F	0%	0	3	0	1.0
CCCCOc1ccc(C(=O)N2CC(C)OC(C)C2)cc1 (centres undefined)	2%	-8	2	-6	-0.6
Cc1cc(C)n2ncc(C(=O)NCc3ccc(Cl)cc3)c2n1	10%	-4	2	-26	28
CC(C)C(=O)c1cn(Cc2ccc(C#N)cc2)c2ccccc12	9%	-3	-13	-42	6.6
Cc1cc(C)c[n+](-c2nc3ccccc3nc2[N-]S(=O)(=O)c2ccc(Cl)cc2)c1	-9%	-2	-7	-45	-2.9
CCOC(=O)c1ccc(NC(=O)CCS(=O)(=O)c2ccc(Br)s2)cc1	21%	49	-2	15	-1.6
CCOc1ccc(NC(=O)CC2C(=O)N(c3ccccc3)C(=O)N2Cc2ccco2)cc1 (centres undefined)	6%	-2	1	·	0.3
CCOc1ccc(CN2CCNC(=O)C2CC(=O)NC2CCCCCC2)cc1 (centres undefined)	·	-3	·	·	4.4
COc1ccc(/C=C2\CCC(C3CCCC3)C2=O)cc1 (centres undefined)	·	1	·	·	3.1
COc1ccc2c(c1)CC/C(=C\C=C\c1ccccc1)C2=O	-3%	98	-6	-6	11
COc1cc(/C=N/NC(=O)c2ccccc2)ccc1OS(=O)(=O)c1ccccc1	2%	0	-23	-13	0.5
COc1ccc2nc(Nc3nc(CSc4nnc(C)s4)cc(=O)[nH]3)nc(C)c2c1	9%	10	0	-7	1.2
Cc1ccc(S(=O)(=O)Nc2c(C)cc(C)nc2Cl)cc1	·	1	·	·	-1.5
Cc1cc(C)c(NC(=O)CN2CCN(C)CC2)c(C)c1	4%	2	-1	-26	-0.2	Arbovirus inh repeat=1
CCc1ccccc1NC(=O)Cn1nnc(C(=O)NCc2cccs2)c1N	-6%	-4	-20	·	-1.6
O=c1c2cc3ccccc3n2cnn1Cc1ccccc1F	-8%	3	-28	-15	6.4
CC(=O)CCCCn1cnc2c1c(=O)n(C)c(=O)n2C	-6%&0%	-1	-1	·	27
COCCC(=O)N1CCC(Oc2ccc(C(=O)N3CCCCC3COC)cc2)CC1 (centres undefined)	·	0	·	·	-1.4
COC(=O)c1cccc(S(=O)(=O)N2CCN(c3nc4ccccc4s3)CC2)c1	-5%	6	0	-26	-2.0
CCOC(=O)c1cccc(NC(=O)CSc2nncn2-c2ccccn2)c1	·	-2	·	·	4.1
COc1ccc(C2C=C(C34CC5CC(CC(C5)C3)C4)NC(=S)N2)cc1OC (centres undefined)	8%	0	15	-26	5.2
COc1cc(/C=N/NC(=O)c2cnccn2)cc(OC)c1OC	-7%	10	2	-4	-7.4
CC(=O)c1sc(NC(=O)C2CCN(C(=O)c3ccccc3C)CC2)nc1-c1ccccc1	·	-2	·	·	-12
O=C1c2cccc(OCC(=O)N3CCCc4ccccc43)c2CCN1Cc1ccccc1	6%	18	-31	-13	16
O=C(Nc1cccc(Cl)c1)c1cnccn1	·	7	·	·	-2.1
O=C(COC(=O)CCSc1ccccc1Cl)NCc1ccco1	6%	-3	-1	·	2.0
COc1cccc(C2NC(c3cccc(OC)c3O)C(C)C(=O)C2C)c1O (centres undefined)	3%	5	-41	-3	1.4
CCOC(=O)CSc1ncnc2c(C(=O)OCC)c3n(c12)CCC3	-1%	0	2	-9	0.9
O=c1[nH]snc1N1CCOCC1	-5%	-2	8	·	-1.0
CCC(=O)N(CCc1ccccc1)Cc1cc2cc(C)ccc2[nH]c1=O	·	-2	·	·	-1.4
Cc1c(C(=O)N2CCC3(CC2)OCCO3)sc2ncnc(N(C)c3ccccc3)c12	-5%	17	4	-20	1.7
Cc1cc(C)c2c(N)c(C(=O)c3ccc(Br)cc3)oc2n1	6%	2	·	·	-15
COC(=O)C(NC(=O)c1ccc(C)cc1)(Nc1cccc(C)n1)C(F)(F)F (centres undefined)	-5%	-2	0	-21	0.6
Cn1nc(-c2ccc(N3CCN(CCO)CC3)c([N+](=O)[O-])c2)c2ccccc2c1=O	-10%	-6	-19	·	-2.2
CC1=CC(=C(C#N)c2nc3ccccc3s2)C=C(C)N1c1ccc(F)cc1F	-2%	2	-1	79*	-5.9
Cc1ccc(NC(=O)c2ccc(Cl)c(S(=O)(=O)NCC3CCCO3)c2)c(O)c1 (centres undefined)	·	0	·	·	-3.1
CCc1ccc(CN2CCC(n3nccc3NC(=O)c3cccc(F)c3)CC2)cc1	·	6	·	·	0.4
COC(=O)c1ccc(COn2c(=O)c(C)[n+]([O-])c3ccccc32)cc1	-7%	2	0	-15	0.9
CCOC(=O)c1cc(S(=O)(=O)N2CCN(Cc3ccccc3)CC2)cn1C	·	-3	·	·	3.0
C=CCc1cc(Cl)ccc1OCCOCCN(C)C	-3%	-5	-11	·	0.1
O=C(CCNc1ccc(F)c(Cl)c1)c1ccco1	?	10	0	-45	0.5
Cc1cccnc1NC(=O)Nc1cccs1	1%	4	-9	-21	-0.8
Cc1c(C)n2c(SCC(=O)N3CCCC3)nnc2[nH]c1=O	·	1	·	·	0.7

For reference, part of the list above.
SMILES	Mtb H37Rv	Mtb betalactam	Arbovirus inh	YopH PTP inh	RecA splice inh	others
COC(=O)c1ccc(COn2c(=O)c(C)[n+]([O-])c3ccccc32)cc1	-7%	2	0	-15	0.9
CCOC(=O)c1cc(S(=O)(=O)N2CCN(Cc3ccccc3)CC2)cn1C	·	-3	·	·	3.0
C=CCc1cc(Cl)ccc1OCCOCCN(C)C	-3%	-5	-11	·	0.1
O=C(CCNc1ccc(F)c(Cl)c1)c1ccco1	?	10	0	-45	0.5
Cc1cccnc1NC(=O)Nc1cccs1	1%	4	-9	-21	-0.8
Cc1c(C)n2c(SCC(=O)N3CCCC3)nnc2[nH]c1=O	·	1	·	·	0.7

Looked up by structure from above:
SMILES	Mtb H37Rv	Mtb betalactam	Arbovirus inh	YopH PTP inh	RecA splice inh	others
CCc1ccccc1NC(=O)Cn1nnc(C(=O)NCc2cccs2)c1N	-6%	-4	-20	·	-1.6
CC(C)(C)SCCNC(=O)/C=C/c1ccc([N+](=O)[O-])cc1	11%	-6	11	-9	3.0
Cc1ccc(S(=O)(=O)Nc2c(C)cc(C)nc2Cl)cc1	·	1	·	·	-1.5

The results go on:
SMILES	Mtb H37Rv	Mtb betalactam	Arbovirus inh	YopH PTP inh	RecA splice inh	others
COCCCNCC#CCOc1ccc(OC)cc1	-9%	6	11	·	1.1
COc1ccc(C(=O)NC(=S)Nc2ccc(CN3CCCCC3)cc2)cc1Cl	8%	-9	-30	·	4.5
Cc1cc2c(cc1S(=O)(=O)CCC(=O)NCc1ccccc1)OCC(=O)N2	·	-6	·	·	-0.5
O=C(Nc1nnc(CCN2CCCCC2)s1)C1CCCCC1	-6%	5	-12	-22	-0.9
Cc1ccc(C(=O)NC(=S)NCc2ccccc2)cc1Br	·	-3	·	·	1.2
O=C(NCc1ccco1)c1cc(-c2cccc(Cl)c2)on1	10%	16	6	-42	6.6
O=C(CSc1ncnc2c1oc1ccccc12)OCc1ccccc1	7.8µM*	99	-11	-67	3.4
O=C(OCc1cccc2ccccc12)C1CC(=O)N(c2ccccc2)C1 (centres undefined)	0%	5	2	-18	2.4
O=C(NCc1ccccc1)/C(=C\c1ccc(O)cc1)NC(=O)c1ccco1	·	-4	·	·	-0.8
CCOC(=O)N1CCN(C(=O)c2ccc3c(Cl)c4c(nc3c2)CCCC4)CC1	·	-1	·	·	5.1
COc1ccc(C(=S)N2CCOCC2)cc1OC(=O)c1ccc([N+](=O)[O-])cc1	·	-8	·	·	9.0
COCc1cc(N2CCOCC2)nc(SCc2ccc(Cl)cc2)n1	-4%	8	7	·	4.2
CC(C)C(=O)Nc1nnc(CCN2CCOCC2)s1	-3%	1	6	-16	1.6
Cc1ccc2c(c1)c1c3n2CCN(C(=O)C2CC2)C3CCC1 (centres undefined)	24%	66	0	-16	-5.9
COc1ccc(CN(Cc2ccco2)S(=O)(=O)c2ccc(S(=O)(=O)N3CCCC3)cc2)cc1	-7%	3	-10	-17	-1.8
COc1cccc(C(=O)Nn2c(-c3cccs3)nc3ccccc3c2=O)c1OC	-1%	-11	5	-17	1.2
COc1ccc(N2CCN(CC(O)COCCOc3ccc(Br)cc3)CC2)cc1 (centres undefined)	69%	91	-15	-24	0.3
CCc1noc(C)c1C(=O)OCC(=O)N(CC)c1c(N)n(Cc2ccccc2)c(=O)[nH]c1=O	·	-11	·	·	0.3
CCOC(=O)N(C)c1ccc(C(O)(C(F)(F)F)C(F)(F)F)cc1	-9%	9	11	-34	·
CC(C)(C)C1=C(C#N)C(c2cc3c(cc2Br)OCO3)C(C#N)=C(N)O1 (centres undefined)	-3%	-16	·	·	4.0
CS(=O)(=O)NCCSc1cc(C(F)(F)F)nc2ccccc12	-4%	-11	·	·	-2.3
COC(=O)C1=C(c2ccc(S(C)(=O)=O)cc2)C[C@@H]2CC[C@H]1N2C(=O)NCc1ccc(F)cc1	-9%	-2	·	·	-1.1
CC(NC(=O)CNC(=O)OCc1ccccc1)C(=O)N1CC(O)CC1C(=O)OCc1ccccc1 (centres undefined)	-2%	3	-6	-37	-0.7
O=S(=O)(/N=C(/Nc1ccccc1)c1ccccc1O)c1ccccc1	0%	6	4	·	1.7
Cc1c(N)cccc1-n1cccc1	77%	49	2	·	3.2
COC(=O)CCNC(=O)c1ccc2[nH]c(C)c(C)c2c1	-1%	-4	-2	·	-2.1
CC1=C[C@@H](C)[C@@H](c2ccccc2)OC1=O	1%	-5	·	·	0.4
CCOC(=O)C1CCN(C(=O)CC(C)S(=O)(=O)c2ccc3c(c2)NC(=O)CO3)CC1 (centres undefined)	·	0	·	·	-0.8
